HIV Env fusion – inhibitors of HIV-1 Env-driven cell-cell fusion, primary screen, HeLa-JRFL effector, CEM21 target cells, luciferase; AID 651610, 2012; actives 1.1% (n = 360,000); inhibition, % at 12.3 µM;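 active means mean replicate inhibition score of at least 50 and every replicate individually at or above 50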;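 further: 0% = plate neutral controls and 100% = maraviroc near 300 nM; one replicate is shown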
UUG fidelity – modulators of yeast start codon fidelity, primary screen, whole organism, S. cerevisiae, single point, plate reader; S. cerevisiae UUG-firefly luciferase reporter, luminescence/redox ratio; activity score, % at 18.7 µM; actives 0.13% (n = 350,000);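 active means replicate mean at a twofold rise or more, about +100% in these data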;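 further: firefly luciferase made from a UUG start codon reports start codon fidelity; reporter light over untreated wells divided by growth signal over untreated wells; some hits fall short of that in this replicate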
Active calls of the source: *; [ ] = remark or other dose. A portion of the library, so the mix of outcomes need not match the whole.

SMILES | UUG fidelity | HIV Env fusion
CC(C)C#Cc1cnc2c(c1)C(=O)N([C@H](C)CO)C[C@H](C)[C@@H](CN(C)S(=O)(=O)c1cn(C)cn1)O2 | 8.0 | -37.3[16.7 µM]
COc1ccccc1C#Cc1ccc2c(c1)O[C@H](CN(C)C)[C@@H](C)CN([C@@H](C)CO)S2(=O)=O | 7.9 | -7.4[16.7 µM]
COCC(=O)Nc1ccc2c(c1)OC[C@@H](C)N(CCC(F)(F)F)C[C@@H](C)[C@@H](OC)CN(C)C2=O | 3.1 | -8.1[16.7 µM]
C[C@H](CO)N1C[C@H](C)[C@@H](CN(C)C(=O)C2CC2)Oc2cc(-c3ccccc3)ccc2S1(=O)=O | -2.1 | 1.3[16.7 µM]
Cc1ccc(S(=O)(=O)N(C)C[C@@H]2OCCCC[C@@H](C)Oc3ccc(NC(=O)CCC(F)(F)F)cc3C(=O)N([C@H](C)CO)C[C@H]2C)cc1 | 2.0 | -32.4[16.7 µM]
CCCNC(=O)N(C)C[C@@H]1Oc2ncc(C#CC3CCCCC3)cc2C(=O)N([C@H](C)CO)C[C@H]1C | 24.4 | 2.9[16.7 µM]
C[C@@H]1CN([C@H](C)CO)C(=O)c2cc(Br)cnc2O[C@@H]1CN(C)C(=O)c1ccccn1 | 1.3 | 14.7[16.7 µM]
C[C@H]1CN([C@@H](C)CO)C(=O)Cc2cc(NC(=O)Nc3ccc(C(F)(F)F)cc3)ccc2O[C@H]1CN(C)C(=O)NC1CCCCC1 | -0.3 | -7.2[16.7 µM]
CCCC(=O)Nc1ccc2c(c1)C(=O)N(C)C[C@@H](OC)[C@@H](C)CN(C(C)=O)[C@H](C)CO2 | 8.8 | -15.8[16.7 µM]
CCCNC(=O)N(C)C[C@@H]1Oc2ncc(C#CC3CCCCC3)cc2C(=O)N([C@@H](C)CO)C[C@@H]1C | 8.8 | -5.7[16.7 µM]
COCC#Cc1cnc2c(c1)C(=O)N([C@@H](C)CO)C[C@H](C)[C@@H](CN(C)C(=O)Nc1cccc(F)c1)O2 | 9.3 | -5.5[16.7 µM]
CCC(=O)N[C@@H]1C=C[C@@H](CC(=O)NCCN2CCCCC2)O[C@@H]1CO | -20.9 | 11.7[16.7 µM]
C[C@@H]1CN([C@H](C)CO)C(=O)c2cc(NC(=O)C3CC3)ccc2O[C@@H]1CN(C)C(=O)NC1CCCCC1 | -5.7 | -14.4[16.7 µM]
O=C(NCC[C@H]1CC[C@H](NC(=O)c2ccncc2)[C@@H](CO)O1)Nc1ccc(Cl)cc1 | -10.0 | -4.0[16.7 µM]
CNC[C@H]1Oc2cc(-c3cncnc3)ccc2S(=O)(=O)N([C@@H](C)CO)C[C@H]1C | 30.1 | -15.7[16.7 µM]
C[C@@H]1CCCCO[C@@H](CN(C)Cc2ccc(C(=O)O)cc2)[C@H](C)CN([C@@H](C)CO)C(=O)c2cc(N(C)C)ccc2O1 | 15.7 | 12.8[16.7 µM]
C[C@@H]1CN([C@@H](C)CO)C(=O)c2cc(NC(=O)Nc3ccc(F)cc3)ccc2O[C@H]1CN(C)Cc1ccc(Cl)c(Cl)c1 | -8.3 | -13.4[16.7 µM]
CC(C)NC(=O)N(C)C[C@H]1OCCCC[C@H](C)Oc2ccc(NS(=O)(=O)c3cccs3)cc2C(=O)N([C@@H](C)CO)C[C@@H]1C | -10.7 | -51.7[16.7 µM]
CCCC(=O)Nc1ccc2c(c1)C(=O)N(C)C[C@@H](OC)[C@H](C)CN(CCC)[C@H](C)CO2 | -11.7 | -14.3[16.7 µM]
CC(=O)N(C)C[C@H]1Oc2ncc(C#Cc3cccc(F)c3)cc2C(=O)N([C@@H](C)CO)C[C@@H]1C | 35.4 | 13.6[16.7 µM]
C[C@H]1CN([C@@H](C)CO)C(=O)c2cccc(NC(=O)C3CCCCC3)c2O[C@H]1CN(C)S(=O)(=O)c1cccs1 | 2.4 | 15.7[16.7 µM]
C[C@@H]1CN([C@H](C)CO)C(=O)c2cc(NC(=O)Cc3ccccc3)ccc2O[C@@H](C)CCCCO[C@H]1CN(C)S(=O)(=O)c1ccccc1 | 21.0 | 12.4[16.7 µM]
C[C@@H]1CN([C@H](C)CO)C(=O)c2cc(NS(=O)(=O)c3ccc(F)cc3)ccc2O[C@@H]1CN(C)S(C)(=O)=O | -8.3 | -44.8[16.7 µM]
C[C@@H]1CN([C@H](C)CO)C(=O)c2cc(NS(=O)(=O)c3ccccc3)ccc2O[C@H]1CN(C)Cc1ccc(-c2ccccc2)cc1 | -2.0 | -26.7[16.7 µM]
O=C(O)C[C@H]1C[C@H]2c3cc(NC(=O)C4CCC4)ccc3O[C@H]2[C@@H](CO)O1 | 1.7 | -3.1[16.7 µM]
C[C@@H]1CN([C@H](C)CO)C(=O)c2cc(NC(=O)Cc3ccccc3)ccc2O[C@@H](C)CCCCO[C@H]1CN(C)C(=O)C1CCCCC1 | 21.3 | -2.1[16.7 µM]
C[C@H](CO)N1C[C@H](C)[C@@H](CN(C)Cc2ccccc2)Oc2cc(C3=CCCC3)ccc2S1(=O)=O | 2.9 | 55.4*[16.7 µM]
COc1cccc(C#Cc2ccc3c(c2)O[C@H](CN(C)S(=O)(=O)c2ccccc2F)[C@H](C)CN([C@@H](C)CO)S3(=O)=O)c1 | -14.6 | 1.3[16.7 µM]
C[C@@H]1CCCCO[C@@H](CN(C)S(=O)(=O)c2cn(C)cn2)[C@@H](C)CN([C@@H](C)CO)C(=O)c2cc(NC(=O)Cc3ccccc3)ccc2O1 | 57.8 | -15.7[16.7 µM]
CNC[C@H]1Oc2cc(C#CC(C)C)ccc2S(=O)(=O)N([C@@H](C)CO)C[C@H]1C | -1.4 | -15.3[16.7 µM]
C[C@@H](NC(=O)C[C@H]1CC[C@@H](NC(=O)Cc2ccccn2)[C@@H](CO)O1)c1ccccc1 | -2.7 | 0.7[16.7 µM]
Cc1noc(C)c1NC(=O)Nc1ccc2c(c1)CC(=O)N([C@@H](C)CO)C[C@H](C)[C@@H](CN(C)C(=O)Nc1cccc3ccccc13)O2 | -1.0 | 11.4[16.7 µM]
CCCNC(=O)N(C)C[C@@H]1Oc2cc(C#CC(C)C)ccc2S(=O)(=O)N([C@H](C)CO)C[C@H]1C | 6.1 | -10.9[16.7 µM]
COc1ccccc1C(=O)Nc1ccc2c(c1)C(=O)N(C)C[C@H](OC)[C@@H](C)CN(C(C)=O)[C@@H](C)CO2 | 2.3 | -0.8[16.7 µM]
COc1ccccc1-c1cnc2c(c1)C(=O)N([C@H](C)CO)C[C@H](C)[C@H](CN(C)C(=O)CN(C)C)O2 | 17.7 | 0.8[16.7 µM]
C[C@@H]1CN([C@@H](C)CO)C(=O)c2cc(NS(C)(=O)=O)ccc2O[C@@H](C)CCCCO[C@@H]1CN(C)C(=O)c1ccncc1 | -1.6 | -19.8[16.7 µM]
C[C@@H]1CCCCO[C@@H](CN(C)S(=O)(=O)c2ccc(F)cc2)[C@@H](C)CN([C@@H](C)CO)C(=O)c2cc(NS(=O)(=O)c3ccc(Cl)cc3)ccc2O1 | 1.1 | -49.6[16.7 µM]
CCCNC(=O)N(C)C[C@@H]1Oc2cc(-c3ccccc3)ccc2S(=O)(=O)N([C@@H](C)CO)C[C@H]1C | 1.4 | -9.5[16.7 µM]
O=C(NCC[C@@H]1CC[C@H](NC(=O)C2CC2)[C@@H](CO)O1)Nc1ccc(Cl)cc1 | -16.9 | 11.3[16.7 µM]
C[C@@H]1CN([C@@H](C)CO)C(=O)c2cccc(NC(=O)c3cnccn3)c2O[C@H]1CN(C)CC1CC1 | -6.7 | 14.8[16.7 µM]
COc1ccc(S(=O)(=O)N(C)C[C@@H]2Oc3c(NC(=O)Nc4ccc5c(c4)OCO5)cccc3C(=O)N([C@H](C)CO)C[C@@H]2C)cc1 | -4.4 | -29.8[16.7 µM]
O=C(C[C@H]1C[C@@H]2c3cc(NC(=O)C4CCOCC4)ccc3O[C@@H]2[C@H](CO)O1)NCc1ccccn1 | -21.7 | -1.0[16.7 µM]
COc1ccc(CN(C)C[C@H]2OCCCC[C@@H](C)Oc3ccc(NC(=O)c4ccncc4)cc3C(=O)N([C@H](C)CO)C[C@H]2C)cc1 | 16.2 | -15.4[16.7 µM]
COc1ccc(S(=O)(=O)N(C)C[C@@H]2Oc3ccc(NS(=O)(=O)c4ccccc4)cc3C(=O)N([C@@H](C)CO)C[C@@H]2C)cc1 | 8.3 | 19.4[16.7 µM]
C[C@@H]1CN([C@@H](C)CO)C(=O)c2cccc(NC(=O)Nc3ccc(C(F)(F)F)cc3)c2O[C@@H]1CN(C)Cc1ccc(Oc2ccccc2)cc1 | 12.9 | -34.0[16.7 µM]

Fetched by structure from the entries so far:
SMILES | UUG fidelity | HIV Env fusion
CC(=O)N(C)C[C@H]1Oc2ncc(C#Cc3cccc(F)c3)cc2C(=O)N([C@@H](C)CO)C[C@@H]1C | 35.4 | 13.6[16.7 µM]
CCCNC(=O)N(C)C[C@@H]1Oc2cc(-c3ccccc3)ccc2S(=O)(=O)N([C@@H](C)CO)C[C@H]1C | 1.4 | -9.5[16.7 µM]

The results go on:
SMILES | UUG fidelity | HIV Env fusion
C[C@@H]1CN([C@H](C)CO)S(=O)(=O)c2ccc(-c3cncnc3)cc2O[C@H]1CN(C)Cc1ccccc1 | 3.4 | -15.7[16.7 µM]
O=C(C[C@H]1CC[C@H]2[C@@H](COC[C@@H](O)CN2Cc2ccccc2F)O1)NC1CCC1 | 13.3 | -8.0[16.7 µM]
CC(=O)N(C)C[C@H]1Oc2ncc(/C=C/c3ccccc3)cc2C(=O)N([C@@H](C)CO)C[C@H]1C | -5.5 | 10.8[16.7 µM]
C[C@H]1CCCCO[C@H](CN(C)S(=O)(=O)c2ccc(F)cc2)[C@@H](C)CN([C@@H](C)CO)C(=O)c2cc(NC(=O)CCC(F)(F)F)ccc2O1 | -0.8 | -40.9[16.7 µM]
O=C(C[C@@H]1CC[C@@H](NC(=O)NC2CCCC2)[C@@H](CO)O1)NCc1ccc(F)cc1 | -13.1 | -3.6[16.7 µM]
C[C@@H]1CN([C@H](C)CO)C(=O)c2cc(C3=CCCCC3)cnc2O[C@H]1CN(C)C(=O)c1cccnc1 | 33.3 | -17.5[16.7 µM]
COCC(=O)N1C[C@@H](C)[C@H](OC)CN(C)C(=O)c2cc(NS(C)(=O)=O)ccc2OC[C@@H]1C | -1.9 | -3.1[16.7 µM]
C[C@H](CO)N1C[C@H](C)[C@H](CN(C)C(=O)Nc2cccc3ccccc23)Oc2ncc(-c3cc4ccccc4o3)cc2C1=O | -6.9 | -6.9[16.7 µM]
C[C@H]1CN([C@@H](C)CO)S(=O)(=O)c2ccc(-c3cccc(F)c3)cc2O[C@@H]1CN(C)S(=O)(=O)c1ccccc1 | -11.8 | 41.2[16.7 µM]
C[C@@H]1CN([C@H](C)CO)C(=O)c2cccc(NC(=O)c3ccncc3)c2O[C@@H]1CN(C)Cc1ccc(Cl)c(Cl)c1 | -1.1 | -81.6[16.7 µM]
Cc1noc(C)c1NC(=O)Nc1ccc2c(c1)CC(=O)N([C@H](C)CO)C[C@@H](C)[C@H](CN(C)S(=O)(=O)c1ccccc1)O2 | 6.1 | -11.4[16.7 µM]
C/C=C/c1cnc2c(c1)C(=O)N([C@@H](C)CO)C[C@H](C)[C@@H](CN(C)Cc1ccccc1)O2 | 11.2 | 2.2[16.7 µM]
COc1ccc(NC(=O)Nc2cccc3c2O[C@H](CN(C)S(C)(=O)=O)[C@H](C)CN([C@H](C)CO)C3=O)cc1 | -7.4 | -15.7[16.7 µM]
COc1cccc(S(=O)(=O)N(C)C[C@@H]2Oc3ncc(-c4cc5ccccc5o4)cc3C(=O)N([C@H](C)CO)C[C@@H]2C)c1 | -14.7 | -14.6[16.7 µM]
C[C@H]1CN([C@@H](C)CO)C(=O)c2cccc(NC(=O)c3nc4ccccc4s3)c2O[C@@H]1CN(C)S(=O)(=O)c1ccc(Cl)cc1 | -10.7 | 1.1[16.7 µM]

4 entries from above, with the structure last:
UUG fidelity | HIV Env fusion | smiles
-1.9 | -3.1[16.7 µM] | COCC(=O)N1C[C@@H](C)[C@H](OC)CN(C)C(=O)c2cc(NS(C)(=O)=O)ccc2OC[C@@H]1C
-6.9 | -6.9[16.7 µM] | C[C@H](CO)N1C[C@H](C)[C@H](CN(C)C(=O)Nc2cccc3ccccc23)Oc2ncc(-c3cc4ccccc4o3)cc2C1=O
-11.8 | 41.2[16.7 µM] | C[C@H]1CN([C@@H](C)CO)S(=O)(=O)c2ccc(-c3cccc(F)c3)cc2O[C@@H]1CN(C)S(=O)(=O)c1ccccc1
-1.1 | -81.6[16.7 µM] | C[C@@H]1CN([C@H](C)CO)C(=O)c2cccc(NC(=O)c3ccncc3)c2O[C@@H]1CN(C)Cc1ccc(Cl)c(Cl)c1

(continued)
SMILES | UUG fidelity | HIV Env fusion
O=C(Cc1ccccc1)N[C@@H]1CC[C@@H](CC(=O)N2CCCCC2)O[C@H]1CO | -10.0 | -45.6[16.7 µM]
COc1ccc(NC(=O)N(C)C[C@@H]2OCCCC[C@@H](C)Oc3ccc(NC(=O)CCCN(C)C)cc3C(=O)N([C@H](C)CO)C[C@@H]2C)cc1 | 17.1 | -9.1[16.7 µM]
C[C@@H]1CN([C@@H](C)CO)C(=O)Cc2cc(N(C)C)ccc2O[C@H]1CN(C)Cc1ccc(C(=O)Nc2ccccc2N)cc1 | -1.5 | -16.0[16.7 µM]
CNC[C@@H]1Oc2c(NC(=O)c3ccncc3)cccc2C(=O)N([C@H](C)CO)C[C@H]1C | -4.9 | -10.3[16.7 µM]
C[C@H](CO)N1C[C@H](C)[C@@H](CN(C)Cc2ccc3c(c2)OCO3)OCCCC[C@H](C)Oc2ccc(NS(=O)(=O)c3cccs3)cc2C1=O | 35.5 | -27.6[16.7 µM]
CC(C)CC#Cc1ccc2c(c1)O[C@@H](CN(C)Cc1ccccn1)[C@H](C)CN([C@H](C)CO)S2(=O)=O | -11.0 | 91.3*[16.7 µM]
CC(C)C#Cc1ccc([C@H]2[C@@H](CO)N(C(=O)C3CC3)[C@H]2C#N)cc1 | 5.1 | -11.2[16.7 µM]

Screening results: PubChem BioAssay, Broad Institute
